High-throughput results: PubChem BioAssay, ICCB-Longwood Screening Facility, Harvard Medical School
p53 nuclei: p53 stabilisation in HPV-positive human cells, imaging, p53-positive nuclei imaging, 24 h, 48 h (AID 1508601); p53-positive nuclei imaging, 48 h; active compounds read high; some inactives read as strong as hits; p53-positive nuclei, normalised, % at 11 µM unless noted; actives 1% (n = 5,700);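 active = mean of two plates above 50% at 24 h or at 48 h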;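 note: HPV-positive HeLa cells with a fluorescent p53 stability reporter; 0% = vehicle and 100% = proteasome inhibitor control; doses worked out from stocks diluted about 900-fold with the highest of each compound shown; many of its hits are not listed in these tables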
p53 nuclei cells 24 h: also measured in p53 nuclei; calls as there; nuclei count, normalised, %; measured here: cell number at 24 h;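 100% = vehicle wells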
p53 nuclei p53 24 h: second read-out of p53 nuclei, no call of its own (marks repeat the call); p53-positive nuclei, normalised, %; measured here: p53 positive nuclei at 24 h;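 0% = vehicle and 100% = positive control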
p53 nuclei cells 48 h: also measured in p53 nuclei; calls as there; nuclei count, normalised, %; measured here: cell number at 48 h;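 100% = vehicle wells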
* = called active by the depositor; [ ] = remark or other dose.

SMILES | p53 nuclei | p53 nuclei cells 24 h | p53 nuclei p53 24 h | p53 nuclei cells 48 h
CCN(c1cc(-c2ccc(CN3CCOCC3)cc2)cc(C(=O)NCc2c(C)cc(C)[nH]c2=O)c1C)C1CCOCC1 | 0.0 | 84 | -0.1 | 84
O=C(O)c1cc(=O)[nH]c(=O)[nH]1 | -0.2[3.7 µM] | 117 | -0.6 | 109
CC(Oc1cc(-c2cnn(C3CCNCC3)c2)cnc1N)c1c(Cl)ccc(F)c1Cl (centres undefined) | 0.7 | 44 | 0.0 | 25
Cc1[nH]c2ccccc2c1CCNCc1ccc(C=CC(=O)NO)cc1 | 107*[3.7 µM] | 37* | 93* | 20*
C#Cc1cccc(Nc2ncnc3cc(OCCOC)c(OCCO)cc23)c1 | 0.0[3.7 µM] | 99 | -0.1 | 103
OCC1OC(O)C(O)C(O)C1O (centres undefined) | -0.2 | 111 | 0.0 | 110
O=C(O)CSc1nnc(Br)n1-c1ccc(C2CC2)c2ccccc12 | 0.0 | 107 | 0.1 | 103
Oc1cc2c(cc1O)CN(C(=S)NCCc1ccc(Cl)cc1)CCC2 | -0.1 | 102 | 0.4 | 102
COCCn1c2c([n+](Cc3cnccn3)c1C)C(=O)c1ccccc1C2=O | -0.6[3.7 µM] | 26 | 0.9 | 21
Nc1ncn([C@@H]2O[C@@H](CO)[C@H](O)[C@@H]2O)c(=O)n1 | 0.3 | 66 | 0.1 | 63
CC1(C)OC2C[C@H]3[C@@H]4CCC5=CC(=O)C=C[C@]5(C)[C@]4(F)C(O)C[C@]3(C)[C@@]2(C(=O)CO)O1 (some centres undefined) | -0.1[3.7 µM] | 101 | -0.2 | 102
NC1(Cc2ccc(Cl)cc2)CCN(c2ncnc3[nH]ccc23)CC1 | -0.1 | 97 | 0.2 | 105
Nc1nc(N)c(N=O)c(OCC2CCCCC2)n1 | 0.0[3.7 µM] | 76 | -0.2 | 79
O=C1C(=Cc2cn(-c3ccccc3)nc2-c2ccc(OCc3ccc(Cl)cc3)cc2)SC(=S)N1CCS(=O)(=O)O | -0.1 | 103 | -0.1 | 103
CC(=O)NC(CSC(=S)NSc1ccc(SNC(=S)SCC(NC(C)=O)C(=O)O)cc1)C(=O)O (centres undefined) | 6.2 | 65 | 16 | 68
Cc1ccc(NC(=O)c2ccc(CN3CCN(C)CC3)cc2)cc1Nc1nccc(-c2cccnc2)n1 | -0.2 | 87 | 0.0 | 88
C=CCc1cc(OC)c(O)c(C(=O)NCCO)c1 | 0.0[3.7 µM] | 105 | 0.2 | 106
COc1cc(N2CCN(C)CC2)ccc1Nc1nccc(-c2cn(C)c3cnccc23)n1 | 0.0[3.7 µM] | 110 | -0.3 | 106
C[C@]12CC[C@H]3c4ccc(O)cc4CC[C@H]3[C@@H]1CCC2OC(=O)CCC1CCCC1 (some centres undefined) | 0.0[3.7 µM] | 106 | -0.2 | 98
O=C(NC1CCN(CC(F)(F)F)CC1)c1ccc(-c2cccc(F)c2)nc1 | 0.0 | 109 | 0.0 | 103

Structural class: those above with a COOH group (3)
SMILES | p53 nuclei | p53 nuclei cells 24 h | p53 nuclei p53 24 h | p53 nuclei cells 48 h
O=C(O)c1cc(=O)[nH]c(=O)[nH]1 | -0.2[3.7 µM] | 117 | -0.6 | 109
O=C(O)CSc1nnc(Br)n1-c1ccc(C2CC2)c2ccccc12 | 0.0 | 107 | 0.1 | 103
CC(=O)NC(CSC(=S)NSc1ccc(SNC(=S)SCC(NC(C)=O)C(=O)O)cc1)C(=O)O (centres undefined) | 6.2 | 65 | 16 | 68

(listing goes on)
SMILES | p53 nuclei | p53 nuclei cells 24 h | p53 nuclei p53 24 h | p53 nuclei cells 48 h
CC(=O)SC1CC2=CC(=O)CC[C@]2(C)[C@@H]2CC[C@@]3(C)[C@@H](CC[C@]34CCC(=O)O4)[C@H]12 (some centres undefined) | 0.0[3.7 µM] | 85 | 0.0 | 85
CC[C@@]1(O)C(=O)OCc2c1cc1n(c2=O)Cc2cc3c(CN(C)C)c(O)ccc3nc2-1 | 5.1[3.7 µM] | 55 | 3.0 | 39
Cc1ccccc1N1C(=O)c2cc(S(N)(=O)=O)c(Cl)cc2NC1C (centres undefined) | 0.1 | 115 | -0.1 | 106
OC(CCN1CCCCC1)(c1ccccc1)C1CC2C=CC1C2 (centres undefined) | -0.6[3.7 µM] | 105 | -0.4 | 103
CC(C)(C)c1ccc(S(=O)(=O)Nc2ccsc2C(=O)O)cc1 | -0.1 | 68 | -0.2 | 73
NC(=O)c1ncn(C2OC(CO)C(O)C2O)c1O (centres undefined) | -0.2 | 104 | -0.1 | 102
Cn1cc(-c2[nH]c3cc(NC(=O)C(N)C4CCCCC4)cc4c3c2C=NNC4=O)cn1 (centres undefined) | 3.0 | 35 | 0.5 | 20
CC(C)OC(=O)CCCC=CCC1C(O)CC(O)C1C=CC(F)(F)COc1ccccc1 (centres undefined) | -0.2 | 96 | -0.2 | 100
CC(C)OC(=O)C(C(=O)OC(C)C)=C1SC=CS1 | -0.6[3.7 µM] | 115 | 0.3 | 110
CCC(=NO)C(C)=Cc1ccc(F)cc1 | 71 | 65 | 5.6 | 25
FC(F)(F)c1ccc(C=Cc2nc(COc3ccc(CCCCn4ccnn4)cc3)co2)cc1 | -0.1 | 103 | 0.0 | 104
N=C(N)N | -0.1[3.7 µM] | 106 | -0.2 | 112
CC1CC(C(=O)O)C2CC[C@]3(C)C(=CC[C@H]4[C@@]5(C)CCC(O)C(C)(C)[C@@H]5CC[C@]43C)[C@H]2C1C (some centres undefined) | -0.2[3.7 µM] | 112 | -0.2 | 111
COc1cc(F)c(C(C)C)cc1-c1ccc(C(F)(F)F)cc1CN1C(=O)OC(c2cc(C(F)(F)F)cc(C(F)(F)F)c2)C1C (centres undefined) | 0.0 | 95 | -0.1 | 84
Nc1nccc(Oc2ccc(NC(=O)c3c[nH]cc(-c4ccc(F)cc4)c3=O)cc2F)c1Cl | 0.1[3.7 µM] | 90 | 0.0 | 101
CCC(=O)O[C@@]1(C(=O)CCl)C(C)C[C@H]2[C@@H]3CC(F)C4=CC(=O)C=C[C@]4(C)[C@]3(F)C(O)C[C@@]21C (some centres undefined) | -0.2[3.7 µM] | 104 | -0.3 | 98
Fc1ccc(Cl)cc1-c1nc(Nc2ccncc2)c2nccnc2n1 | -0.2 | 97 | -0.1 | 96
CC1(C)CCSc2ccc(C#Cc3ccc(C(=O)O)cn3)cc21 | 0.0 | 109 | -0.2 | 101
CC(C(=O)O)C(=O)O | 0.0 | 106 | 0.1 | 103
CC1(C)S[C@H]2C(NC(=O)C(N)c3ccc(O)cc3)C(=O)N2C1C(=O)O (some centres undefined) | -0.2[3.7 µM] | 113 | -0.5 | 110
NC(=O)c1cnc(NCCc2ccc(O)c(Cl)c2)nc1NCc1ccccc1 | 35 | 42 | 2.0 | 27
COCCCCC(=NOCCN)c1ccc(C(F)(F)F)cc1 | -0.5[3.7 µM] | 97 | -0.2 | 94
Nc1nnc(-c2cccc(Cl)c2Cl)c(N)n1 | -0.1[3.7 µM] | 92 | -0.2 | 92
CNCCC(Oc1ccccc1C)c1ccccc1 (centres undefined) | -0.2 | 91 | -0.1 | 96
CNCC(O)C(O)C(O)C(O)CO (centres undefined) | 0.0[3.7 µM] | 86 | -0.1 | 100
CC(C)(Oc1ccc(Cl)cc1)C(=O)O | -0.1[3.7 µM] | 94 | -0.2 | 92
Cc1ccc2nc(NC(=O)CSc3nc4c(c(=O)n3-c3ccccc3)SCC4)sc2c1 | -0.2[3.7 µM] | 117 | -0.3 | 108
CCCCCCCCOc1ccccc1C(=O)Nc1ccc(C(=O)OCC[N+](C)(CC)CC)cc1 | -0.1[3.7 µM] | 119 | -0.3 | 113
Cc1ccc(C(=O)Cn2c3c(sc2=N)CCCC3)cc1 | -0.2[3.7 µM] | 98 | -0.4 | 99
COc1ccc(C2Sc3ccccc3N(CCN(C)C)C(=O)C2OC(C)=O)cc1 (centres undefined) | -0.2[3.7 µM] | 117 | -0.6 | 101
NC(=O)c1cccc(N)c1 | -0.3[3.7 µM] | 94 | -0.3 | 94
Cc1cc(=O)[nH]c(=S)[nH]1 | -0.2[3.7 µM] | 104 | -0.3 | 103
CS(=O)(=O)c1ccc(C(=O)Nc2ccc(Cl)c(-c3ccccn3)c2)c(Cl)c1 | -0.5[3.7 µM] | 113 | -0.3 | 110
Cc1ccc(B(O)O)cc1 | 0.0 | 110 | -0.1 | 112
N=C(N)SCc1ccc(Cl)cc1Cl | -0.1 | 93 | -0.1 | 97
O=CC(O)C(O)C(O)C(O)CO (centres undefined) | -0.3[3.7 µM] | 109 | -0.5 | 102
O=C(Nc1ccccc1-c1cn2c(CN3CCNCC3)csc2n1)c1cnc2ccccc2n1 | -0.6[3.7 µM] | 111 | -0.4 | 114
Nc1nc(N)nc(-c2cc(Cl)ccc2Cl)n1 | 0.0[3.7 µM] | 106 | -0.1 | 106
O=C(O)c1ccc2cc(-c3ccc(O)c(C45CC6CC(CC(C6)C4)C5)c3)ccc2c1 | 10 | 48 | 4.6 | 32
c1ccc(NCc2ccc(CNc3ccccn3)cc2)nc1 | 0.1 | 105 | -0.1 | 101

Quoted from the listing:
Under p53 nuclei cells 48 h, Cc1ccc(B(O)O)cc1 is listed with 112
Under p53 nuclei p53 24 h, CC1(C)S[C@H]2C(NC(=O)C(N)c3ccc(O)cc3)C(=O)N2C1C(=O)O (some centres undefined) is listed with -0.5
Under p53 nuclei cells 48 h, Fc1ccc(Cl)cc1-c1nc(Nc2ccncc2)c2nccnc2n1 is listed with 96

Reprinted at random: 7 records from the list.
SMILES | p53 nuclei | p53 nuclei cells 24 h | p53 nuclei p53 24 h | p53 nuclei cells 48 h
Nc1nc(N)nc(-c2cc(Cl)ccc2Cl)n1 | 0.0[3.7 µM] | 106 | -0.1 | 106
Cc1ccc2nc(NC(=O)CSc3nc4c(c(=O)n3-c3ccccc3)SCC4)sc2c1 | -0.2[3.7 µM] | 117 | -0.3 | 108
Cc1ccc(B(O)O)cc1 | 0.0 | 110 | -0.1 | 112
NC(=O)c1cnc(NCCc2ccc(O)c(Cl)c2)nc1NCc1ccccc1 | 35 | 42 | 2.0 | 27
O=C(O)c1ccc2cc(-c3ccc(O)c(C45CC6CC(CC(C6)C4)C5)c3)ccc2c1 | 10 | 48 | 4.6 | 32
O=CC(O)C(O)C(O)C(O)CO (centres undefined) | -0.3[3.7 µM] | 109 | -0.5 | 102
O=C(Nc1ccccc1-c1cn2c(CN3CCNCC3)csc2n1)c1cnc2ccccc2n1 | -0.6[3.7 µM] | 111 | -0.4 | 114

More entries follow.
SMILES | p53 nuclei | p53 nuclei cells 24 h | p53 nuclei p53 24 h | p53 nuclei cells 48 h
CCCc1c(OCCCOc2ccc(OCC(=O)O)cc2)ccc(C(C)=O)c1O | 0.1 | 114 | -0.1 | 108
OC(CN1CCN(c2cccc(Cl)c2)CC1)C(c1ccccc1)c1ccccc1 (centres undefined) | -0.2[3.7 µM] | 99 | -0.3 | 100
CC1(c2ccccc2)OC(C(=O)O)=CC1=O (centres undefined) | -0.1 | 98 | -0.1 | 96
COc1cc(C=CC(=O)N2CCC=CC2=O)cc(OC)c1OC | 1.7 | 50 | 1.5 | 36
Cc1csc(Nc2cccc3ccccc23)n1 | 0.1 | 109 | 0.0 | 107
CCCCCOc1ccc(-c2ccc(-c3ccc(C(=O)NC4CC(O)C(O)NC(=O)C5C(O)C(C)CN5C(=O)C(C(C)O)NC(=O)C(C(O)C(O)c5ccc(O)cc5)NC(=O)C5CC(O)CN5C(=O)C(C(C)O)NC4=O)cc3)cc2)cc1 (centres undefined) | 0.2[3.7 µM] | 109 | 0.0 | 100
CN(C)Cc1cccc(N=C(c2ccccc2)c2c(O)[nH]c3cc(C(=O)N(C)C)ccc23)c1 | -0.2 | 97 | -0.1 | 89
Cc1cc(C)cc(NC(=O)Nc2ccc(S(N)(=O)=O)cc2)c1 | -0.1 | 107 | 0.0 | 104
Cc1ccc(S(=O)(=O)Cc2nc(-c3ccc(C(=O)NCc4cccnc4)cc3)oc2C)cc1 | 1.2[3.7 µM] | 90 | -0.3 | 38
Cc1ccc(S(=O)(=O)n2c(N)nc3ccccc32)cc1 | -0.3[3.7 µM] | 106 | -0.4 | 100
c1ccc(-c2nn3c(c2-c2ccnc4cc(OCCN5CCOCC5)ccc24)CCC3)nc1 | 0.1 | 89 | 0.0 | 93
COC(=O)C1=COC(OC2OC(CO)C(O)C(O)C2O)[C@H]2C(CO)=CC[C@H]12 (some centres undefined) | 0.1[3.7 µM] | 114 | -0.3 | 109
CNC(=O)c1ccc(N2C(=S)N(c3ccc(C#N)c(C(F)(F)F)c3)C(=O)C2(C)C)cc1F | 0.0 | 104 | 0.0 | 100
Cc1ccc(-c2ccc3c(c2)C=C(C(=O)Nc2ccc(C[N+](C)(C)C4CCOCC4)cc2)CCC3)cc1 | 0.5 | 94 | 0.0 | 99

A portion taken from the entries so far, for reference:
SMILES | p53 nuclei | p53 nuclei cells 24 h | p53 nuclei p53 24 h | p53 nuclei cells 48 h
CNC(=O)c1ccc(N2C(=S)N(c3ccc(C#N)c(C(F)(F)F)c3)C(=O)C2(C)C)cc1F | 0.0 | 104 | 0.0 | 100
Cc1ccc(-c2ccc3c(c2)C=C(C(=O)Nc2ccc(C[N+](C)(C)C4CCOCC4)cc2)CCC3)cc1 | 0.5 | 94 | 0.0 | 99

These rows are one share of the data; the hit share may differ from the screen's.
